2A StopGo = FMDV 2A StopGo reporter, luciferase signal; human cells with a luciferase reporter of 2A StopGo recoding; control for the full effect not named in the record; AID 1159524; hit rate 1.2% among 410,000; Potency, µM (titrated, usually from 57.9 µM), for the others: top-dose signal change, negative = less light; active = well fitted falling curve with a large enough effect; inconclusive = small, poorly fitted or top-dose-only effect; inactive = no such curve, though single readings can be large or run the other way; tested in HEK293T cells; also: % is scaled to controls: 0 for no effect and ±100 for the full control effect; nearly all actives have a fitted effect of over 45% in size; luciferase light after 4 h
SARS PLP yeast = inhibitors of SARS-CoV papain-like protease in yeast. S. cerevisiae expressing SARS-CoV PLpro, growth rescue; control for the full effect not named in the record. Potency, µM (series often up to 32.9 µM), without a hit: top-dose activity, positive = growth rescue. hit rate 0.19% among 330,000. AID 485353; active means well fitted rising curve with a large enough effect; inconclusive means small, poorly fitted or top-dose-only effect; inactive means no such curve, though single readings can be large or run the other way; also: 0% is about no effect; nearly all actives have a fitted effect of over 55% in size; growth read by luminescence after 48 h
Lassa entry inh = inhibitors of Lassa virus binding or cell entry | Lassa virus pseudotype entry inhibition, cell reporter; control for the full effect not named in the record | hit rate 1.2% among 300,000 | Potency, µM (highest dose often 37.9 µM), for inactives: top-dose activity change, negative = inhibition, hits mostly inhibitors; active means well fitted inhibition curve with a large enough effect; inconclusive means small, poorly fitted or top-dose-only effect, or effect the other way; inactive means flat fitted curve, though single readings scatter; tested in HEK293 cells; also: % is scaled to controls: 0 for no effect and ±100 for the full control effect; nearly all actives have a fitted effect of over 50% in size; luciferase read-out
Cruzain Triton = cruzain (T. cruzi) inhibition with detergent. hit rate 0.43% among 200,000. Potency, µM, for the others: max response, negative = inhibition, most hits filed as inhibitors. AID 1478. P25779. purified cruzain, Z-FR-AMC fluorescence, 0.01% Triton;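 also: plate controls were neutral wells for no effect and buffer without enzyme for full effect; nearly all actives have a fitted effect of over 40% in size; top concentration of the series not given in the record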
Target sequence (P25779 123-467 limits assumed): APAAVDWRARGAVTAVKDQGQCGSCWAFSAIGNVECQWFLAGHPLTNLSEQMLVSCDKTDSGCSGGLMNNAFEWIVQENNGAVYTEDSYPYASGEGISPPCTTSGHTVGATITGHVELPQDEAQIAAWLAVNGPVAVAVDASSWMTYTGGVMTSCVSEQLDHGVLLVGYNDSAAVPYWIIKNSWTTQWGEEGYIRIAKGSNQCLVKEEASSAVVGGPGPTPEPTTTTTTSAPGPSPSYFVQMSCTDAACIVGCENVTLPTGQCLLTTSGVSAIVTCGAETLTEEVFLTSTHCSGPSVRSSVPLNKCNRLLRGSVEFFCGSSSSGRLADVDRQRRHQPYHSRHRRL
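Read-out: AMC fluorescence (360 nm excitation, 450 nm emission), four reads over 2 min, first-to-third difference used. Conditions: cruzain 1.5 nM, Z-FR-AMC 2 uM, pH 5.5 acetate, 5 mM DTT, 0.01% Triton X-100.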
NS1 function inh = influenza NS1 inhibition. Potency, µM (series often up to 46.1 µM), inactives show top-dose activity, positive = more growth. AID 2326. S. cerevisiae slowed by influenza A NS1, growth recovery by OD600. hit rate 0.4% among 270,000; active means well fitted rising curve with a large enough effect; inconclusive means small, poorly fitted or top-dose-only effect; inactive means no such curve, though single readings can be large or run the other way; also: nearly all actives have a fitted effect of over 50% in size
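A cell-based growth assay was used: compounds that relieve NS1-induced slow growth of budding yeast raise OD600. Assay medium was yeast nitrogen base with ammonium sulphate and -URA supplement, pH 6.0, with 2% galactose.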
Marburg entry inh = Marburg virus entry inhibition | Marburg virus pseudotyped entry inhibition, cell reporter; control for the full effect not named in the record; about a third of the inactives were read at about 46 µM | Potency, µM (titrated, usually from 37.8 µM), for inactives: at the top dose activity change, negative = inhibition, actives largely listed as inhibitors | hit rate 1.8% among 300,000; active = well fitted inhibition curve with a large enough effect; inconclusive = small, poorly fitted or top-dose-only effect, or effect the other way; inactive = flat fitted curve, though single readings scatter; tested in HEK293 cells; about a fifth of its hits are not listed in these tables; also: % is scaled to controls: 0 for no effect and ±100 for the full control effect; luciferase read-out
RE007 growth inh = less growth of the S. pombe RE007 Vpr strain; AID 651644; hit rate 0.21% among 360,000; S. pombe RE007 Vpr strain, BacTiter-Glo ATP luminescence, 24 h; control for the full effect not named in the record; Potency, µM (titrated, usually from 92.2 µM), for inactives: at the top dose activity change, negative = less growth; active = well fitted falling curve with a large enough effect; inconclusive = small, poorly fitted or top-dose-only effect; inactive = no such curve, though single readings can be large or run the other way;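 also: % is scaled to controls: 0 for no effect and ±100 for the full control effect; nearly all actives have a fitted effect of over 50% in size; the assay follows cell death caused by Vpr and the record does not say whether a fall means rescue or toxicity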
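Fission yeast strain RE007, carrying one chromosomally integrated HIV-1 vpr copy, was seeded at OD 0.01 in PMG+AL medium with 23 nL pinned compound. After 24 h at 30 °C and 99% humidity, viability was read by BacTiter-Glo luminescence.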
Cruzain noTriton = cruzain (T. cruzi) inhibition without detergent | P25779 | Potency, µM, inactives show max response, negative = inhibition, actives largely listed as inhibitors | hit rate 2.3% among 200,000 | purified cruzain, Z-FR-AMC fluorescence, no detergent;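 also: plate controls were enzyme without inhibitor for no effect and buffer without enzyme for full effect; nearly all actives have a fitted effect of over 40% in size; top concentration of the series not given in the record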
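Detergent-free condition (0.00005% Triton X-100) in acetate buffer pH 5.5 with DTT. 1.5 nM enzyme and compound were pre-mixed 15 min, then 2 uM Z-FR-AMC substrate added; reaction progress from fluorescence change between first and third reads (60 s).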
Starred values were filed as active, the others as inactive; ? = inconclusive; · = no result given; & = joins results of further samples; [ ] = dose if it differs, or a comment. Unless noted, calls follow the shape of the dose curve; as a rule, active = well fitted curve in the direction sought with a large enough effect; inconclusive = small, poorly fitted or top-dose-only effect, or another doubt; inactive = no such curve, though single readings can be large; an effect the other way counts as inactive or inconclusive. Potency is read from the fitted curve at half-maximal effect.

SMILES	2A StopGo	SARS PLP yeast	Lassa entry inh	Cruzain Triton	NS1 function inh	Marburg entry inh	RE007 growth inh	Cruzain noTriton
CCC1(C)Cc2ccccc2-c2nc(NCCO)n(-c3ccccc3)c(=O)c21 (centres undefined)	-17%	8%	?	-15%	-1%	?	0%	?
CC(Oc1ccc2c(c1)oc(=O)c1ccccc12)C(=O)NCCN1CCOCC1 (centres undefined)	-6%	-4%	0%[46.1 µM]	·	-19%	-9%[46.1 µM]	-2%	·
CCCN(CCC)C(=O)c1cc2c(=O)[nH]c3ccc(C)cc3c2s1	-20%	-2%	?	·	·	-29%	4%	·
Cc1ccc(-n2c3c(cc(-c4nc(-c5ccc(Cl)cc5)cs4)c2=O)C(=O)CC(C)(C)C3)cc1	-6%	·	8%[46.1 µM]	-0.9%	·	1%[46.1 µM]	·	-16%
COc1cccc(OC)c1C1=NC(C)(C)CO1	6%	0%	?	·	1%	2%	-13%	·
Cc1csc2ncnc(NC3CCN(Cc4ccccc4)CC3)c12	-22%	0%	-22%[46.1 µM]	·	-5%	10µM*	-14%	·
O=C(Nc1cccnc1)c1cc([N+](=O)[O-])ccc1Cl	-14%	0%	·	·	11%	·	17%	·
COc1ccccc1-c1cc(C(=O)N/N=C/c2sccc2C)c2ccccc2n1	?	1%	?	-4.9%	?	13µM*	-5%	?
CCOC(=O)C1=C(CSc2nccn2C)NC(=O)NC1c1ccc(OC)cc1 (centres undefined)	-1%	3%	-4%	0.2%	8%	-7%	0%	2%
O=C(COc1ccccc1)OCC(=O)c1c[nH]c2ccccc12	-8%	-1%	5%	·	·	10%	21%	·
CCCc1c(C(=O)N/N=C(\C)c2ccc(O)cc2)nnn1-c1nonc1N	-14%	-5%	·	·	?	·	-7%	·
O=C(CSc1ncc(-c2ccc(Cl)cc2)[nH]1)Nc1ccccc1F	-18%	·	23%[46.1 µM]	-13%	·	10%[46.1 µM]	·	1%
C=C(Br)Cn1c(CC)nc2ccccc21	22%	18%	8%	10%	9%	11%	-5%	6%
O=C(NCc1ccco1)c1cc2nc(-c3ccc4c(c3)OCO4)cc(C(F)(F)F)n2n1	4%	-4%	-7%	-23%	-12%	-3%	-8%	?
CSCC[C@H](NC(=O)C1CCN(S(=O)(=O)c2ccccc2)CC1)C(=O)NC1CC1	-5%	-1%	-4%[46.1 µM]	·	-3%	10%[46.1 µM]	-5%	·
CCc1c(C)sc(NC(=S)Nc2nc(C)cc(C)n2)c1C(=O)OC	-6%	0%	6%[46.1 µM]	·	-1%	?	10%	·
O=C(CCC1CCCCC1)N1CCN(Cc2ccc3c(c2)OCO3)CC1	?	-5%	17%	-0.3%	-16%	-2%	-3%	-1%
CSc1cccc(NC(=O)c2ccco2)c1	30%	-9%	15%	-1.1%	-110%	12%	?	7%
COCCNC(=O)c1ccc(NS(C)(=O)=O)cc1	·	6%	11%	5.3%	0%	0%	4%	3%
CC(CN1CCCCC1)OC(=O)c1ccc(Cl)cc1 (centres undefined)	-16%	1%	-7%	-2.8%	1%	10%	-17%	10%
CCc1nc(C)cn1S(=O)(=O)c1ccc([N+](=O)[O-])cc1	-14%	1%	11%	·	-10%	-11%[46.1 µM]	-18%	·
CCc1ccc(C2C3=C(CC(C)(C)CC3=O)OC3=C2C(=O)CC(C)(C)C3)cc1	0%	-2%	?	-3.3%	-19%	3%	-1%	9%
CSc1nc(-c2ccc(Cl)cc2)nn1S(=O)(=O)c1ccccc1	50%[activator]	19%	5%	-5.7%	6%	?	-19%	-11%
CCn1c(=S)[nH]c2ccccc21	9%	2%	-2%	-2.9%	-1%	4%	-3%	-3%
Cc1ccc(N2C(=O)c3ccc(C(=O)N4CCN(c5ccccc5F)CC4)cc3C2=O)cc1	-14%	14%	-8%	-2.5%	?	0%&0%	4%	11%
CC(=O)Nc1cccc(C(=O)OCC(=O)N2CCN(C(=O)COC(=O)c3cccc(NC(C)=O)c3)CC2)c1	-3%	·	8%	·	·	?	20%	·
CCc1ccc(NC(=O)NCCN2CCc3ccccc3C2)cc1	3%	15%	?	-0.9%	-10%	-8%	-1%	10%
CCc1cccc(NC(=S)N(CCOC)C(C)c2ccco2)c1 (centres undefined)	15%	0%	·	·	-2%	·	-16%	·
COc1ccc(C(=O)CN2C(=O)COc3ccccc32)cc1	-11%	-1%	18%[46.1 µM]	·	8%	-2%[46.1 µM]	-4%	·
Cc1ccc2c(c1)nc(SCC(O)c1ccc(Br)cc1)n2C (centres undefined)	-9%	·	-12%[46.1 µM]	-4.7%	·	3%[46.1 µM]	·	-4%
O=C(N/N=C/c1cccnc1)c1cccc(F)c1	29%	?	10%	·	8%	-1%	-27%	·
Cc1ccc(C)c(NC(=O)C(=O)NCCc2c[nH]c3ccccc23)c1	-8%	2%	-23%[46.1 µM]	·	·	-6%[46.1 µM]	1%	·
COc1cc(-c2cc(OC)c3c(C)oc(C)c3c(=O)c2)ccc1O	-10%	-2%	-3%	-10%	-23%	-5%	-6%	?
Cc1c2cnn(CC(=O)NC3CCCC3)c(=O)c2c(C)n1Cc1ccccc1	0%	15%	·	·	16%	·	9%	·
Cc1ccc[n+](/C(C(=S)NCc2ccco2)=C(/[O-])c2ccccc2Cl)c1	10%	6%	0%	4.0%	13%	-3%	-12%	-12%
CCOC(=O)N1CCN(S(=O)(=O)c2ccc(C(=O)N(CCN(C)C)c3nc4ccc(Cl)cc4s3)cc2)CC1	9%	-3%	·	·	2%	·	10%	·
COc1ccc(NCc2nnc(SCC(=O)Nc3cc(C)cc(C)c3)o2)cc1	-8%	1%	-4%	-4.6%	0%	-11%	-12%	-24%
O=Cc1c(N2CCOCC2)nc2ccccn2c1=O	-1%	2%	1%[46.1 µM]	·	·	10%[46.1 µM]	5%	·
N#C/C(=N\Nc1cccc2ccccc12)c1nnc2n1CCCCC2	9%	-6%	·	-8.8%	-6%	8%	-16%	?
O=C(Nc1ccc(S(=O)(=O)N2CCOCC2)cc1)c1ccc(Cl)c([N+](=O)[O-])c1	-28%	·	5%[46.1 µM]	·	·	?	-1%	·
CC(C)(C)n1nnnc1C(c1cc2cc3c(cc2[nH]c1=O)OCO3)N1CCN(c2ccccc2)CC1 (centres undefined)	·	-5%	?	-3.3%	1%	?	-13%	?
OCCC1CN(Cc2cccc(C(F)(F)F)c2)CCN1Cc1ccccc1 (centres undefined)	-18%	-1%	?	·	6%	?	9%	·
CCOc1ccccc1N1CCN(C(=O)NCc2ccc(F)cc2)CC1	3%	0%	-19%	·	-23%	-29%	27%	·
CC(C)N1CC(C(=O)Nc2ccc(F)c(Cl)c2)CC1=O (centres undefined)	-11%	6%	·	·	10%	·	1%	·
O=C(CCCC(=O)N(CC(=O)NC1CCCC1)C1CCCC1)Nc1ccccn1	1%	14%	3%	1.3%	-4%	16%	-14%	-9%
OCCNc1nc(Nc2ccc(O)cc2)nc2ccccc12	-18%	1%	·	·	4%	·	19%	·
C/C(=C\CNc1ncnc2nc[nH]c12)CO	-5%	·	·	-1.0%	·	·	1%	2%
CCOC(=O)c1c(C)n(C)c2ccc(OC(=O)c3ccco3)cc12	-12%	0%	2%	-5.1%	11%	1%	0%	-5%
COc1cccc(/C=C/C(=O)Nc2cc(S(=O)(=O)N3CCOCC3)ccc2OC)c1	10%	2%	5%	·	·	-3%	0%	·
CC1CN(S(=O)(=O)c2ccc(C(=O)Nc3nc(-c4cc5ccccc5o4)cs3)cc2)CC(C)O1 (centres undefined)	?	-11%	?	-2.2%	8%	?	12%	?
CCCn1c(N2CCN(C(=O)NCc3ccccc3)CC2)nc2ccccc21	-3%	0%	-29%	·	-10%	-21%[46.1 µM]	-12%	·
COC(=O)N/N=C/c1cc(Cl)cc(Cl)c1OCc1ccc(F)cc1	0%	-6%	-1%	-5.7%	11%	?	8%	4%
CC(=Nc1ccc2c(c1)CCC2)c1c(O)n(C)c(=O)n(C)c1=O	-21%	0%	-9%	4.4%	-1%	-1%	36%	2%
COc1cc2ncnc(N[C@H](C)c3ccccc3)c2cc1OC	?	1%	·	·	-3%	·	-5%	·
Cn1c(O)c(C=NCCc2c[nH]c3ccccc23)c(=O)n(C)c1=O	0%	1%	-3%	0.0%	-1%	?	-25%	-6%
COc1ccc(C(=O)NCCc2nc3cc([N+](=O)[O-])ccc3n2C)cc1	-13%	1%	·	·	-2%	·	2%	·
Fc1ccc(CNC(=S)Nc2ccc(OC(F)F)cc2)cc1	7%	13%	?	-4.6%	-52%	?	3%	-1%
CC(=O)Nc1ccc(NC(=S)NC(=O)c2oc3ccccc3c2C)cc1	-8%	0%	23%	-1.3%	11%	?	·	-2%
CCCC(=O)Nc1sc2c(c1C#N)CCCCC2	50%[activator]	-15%	?	-3.5%	-8%	19%	-27%	-3%
O=C(CSc1nnc(-c2ccc3c(c2)OCCO3)o1)N1CCCC1	-38%	1%	?	1.3%	-51%	?	14%	-10%
(cont.)
SMILES	2A StopGo	SARS PLP yeast	Lassa entry inh	Cruzain Triton	NS1 function inh	Marburg entry inh	RE007 growth inh	Cruzain noTriton
CCOC(=O)c1c(C)oc2nc(C)nc(NCCc3ccc(OCC)cc3)c12	?	·	5%[46.1 µM]	-2.1%	·	·	·	-14%
CCc1ccccc1-n1nnnc1SCC(=O)Nc1ccc(N2CCN(C)CC2)cc1	-16%	-4%	·	·	3%	·	-16%	·
Cc1ccc(F)c(NC(=O)CCOc2ccccc2C)c1	3%	?	·	·	-36%	·	-5%	·
COc1ccc(CCN(C)C(=O)C23CC4CC(CC(Cl)(C4)C2)C3)cc1OC	0%	-4%	-26%	·	-11%	?	10%	·

Reformatted with values under each structure: entries from further up
Results follow in this order: 2A StopGo | SARS PLP yeast | Lassa entry inh | Cruzain Triton | NS1 function inh | Marburg entry inh | RE007 growth inh | Cruzain noTriton
- CCOC(=O)c1c(C)oc2nc(C)nc(NCCc3ccc(OCC)cc3)c12
    ? | · | 5%[46.1 µM] | -2.1% | · | · | · | -14%
- Cc1ccc(F)c(NC(=O)CCOc2ccccc2C)c1
    3% | ? | · | · | -36% | · | -5% | ·
